# ALOX15 inhib – 15-hLO (ALOX15) enzyme inhibition | P16050 | purified 15hLO-1, xylenol orange hydroperoxide absorbance | Potency, µM (titrated, usually from 57.1 µM), without a hit: top-dose activity change, negative = inhibition, actives largely listed as inhibitors | 74,000 compounds, 1.4% hits | AID 887; also: potency is read from the fitted curve at half-maximal effect; % is scaled to controls: 0 for no effect and ±100 for the full control effect; nearly all actives have a fitted effect of over 55% in size
# Target sequence (P16050 whole entry, looked up): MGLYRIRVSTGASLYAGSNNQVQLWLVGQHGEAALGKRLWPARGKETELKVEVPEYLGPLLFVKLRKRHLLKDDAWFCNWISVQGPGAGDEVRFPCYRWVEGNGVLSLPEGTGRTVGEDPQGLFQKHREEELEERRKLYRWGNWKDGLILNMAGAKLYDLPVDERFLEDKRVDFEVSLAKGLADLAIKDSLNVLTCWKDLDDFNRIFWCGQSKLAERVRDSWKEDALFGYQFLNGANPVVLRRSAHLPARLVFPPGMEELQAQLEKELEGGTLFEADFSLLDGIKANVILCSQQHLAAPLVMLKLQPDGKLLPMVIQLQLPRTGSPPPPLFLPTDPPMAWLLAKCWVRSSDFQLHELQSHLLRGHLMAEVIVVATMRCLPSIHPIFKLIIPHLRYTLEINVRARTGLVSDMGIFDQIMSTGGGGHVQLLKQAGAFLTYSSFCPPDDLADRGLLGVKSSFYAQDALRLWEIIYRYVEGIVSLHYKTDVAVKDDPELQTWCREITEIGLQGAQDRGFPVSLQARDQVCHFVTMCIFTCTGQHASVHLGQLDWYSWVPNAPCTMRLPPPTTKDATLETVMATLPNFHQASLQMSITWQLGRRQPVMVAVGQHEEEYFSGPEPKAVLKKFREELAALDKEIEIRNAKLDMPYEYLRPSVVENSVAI
#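 Purified human 15hLO-1 (40 nM) in 25 mM Hepes pH 7.5, 0.01% Triton X-100, preincubated 15 min RT with compound, then 50 uM arachidonic acid for 6 min. Hydroperoxide read by ferrous/xylenol orange, 30 min; 573/405 nm absorbance ratio gave progress.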
# TexasRed autofl – compound fluoresces in the Texas Red spectral region | Compound fluorescence, Texas Red channel, 547/618 nm; stronger effect = higher value | max dye-equivalent concentration, M | 59,000 compounds, 0.06% hits; in the data active = max dye-equivalent concentration above about 10 nM; inconclusive = between about 1.1 nM and that limit
#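 qHTS profiling of intrinsic compound fluorescence; 100 mM Tris pH 8.0; 15 min RT; ex 547 / em 618 nm; response expressed as Texas Red dye-equivalent concentration from six-point plate standard.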
# 4MU fluor – 4-MU region autofluorescence; max dye-equivalent concentration, M; compound autofluorescence, 340/450 nm, 4-MU equivalents; stronger effect = higher value; 59,000 compounds, 11% hits; in the data active = max dye-equivalent concentration above about 10 nM; inconclusive = mostly about 1.1 nM to 9.6 nM
#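 Compounds in 100 mM Tris, pH 8.0, incubated 15 min at room temperature, then fluorescence read at 340 nm excitation/450 nm emission. Signal converted to 4-MU dye-equivalent concentration using an on-plate six-point 4-MU standard curve.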
# Rhodamine fluor – compound fluoresces in the rhodamine spectral region; 59,000 compounds, 0.05% hits; max dye-equivalent concentration, M; Rhodamine-region fluorescence, 547/598 nm, Tris buffer; stronger effect = higher value; in the data active = max dye-equivalent concentration above about 11 nM; inconclusive = between about 1.1 nM and that limit
#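 Intensities are converted to rhodamine-equivalent concentration using a six-point rhodamine standard on each plate. Compounds sit 15 min at room temperature in 100 mM Tris buffer, pH 8.0; read uses the 547/598 nm excitation/emission pair.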
# GFP derepression – derepresses silenced GFP locus in mouse C127i cells; Potency, µM (titrated, usually from 46.1 µM), for inactives: at the top dose GFP derepression (activation); mouse C127i GFP locus derepression, cytometry, 30 h; AID 597; 68,000 compounds, 0.09% hits; also: % of control where 0% means no effect
#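 Read-out is the number of GFP-positive cells, scored as fluorescent objects 20 to 120 um wide, reflecting derepression of a silenced CMV-GFP reporter in murine C127i cells after 30 h compound exposure at 37 C.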
# Pol III holo inh – blocks replication by bacterial DNA polymerase III holoenzyme. reconstituted DNA polymerase III holoenzyme replication, biochemical. Potency, µM (titrated, usually from 57.1 µM), for the others: at the highest dose activity change, negative = inhibition. 71,000 compounds, 0.25% hits; also: potency is read from the fitted curve at half-maximal effect; % is scaled to controls: 0 for no effect and ±100 for the full control effect
#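 Reconstituted *E. coli* holoenzyme (0.35 nM Pol III, 1 nM beta, 154 nM SSB, 2 nM primase) was preincubated with compound for 15 min at RT. Synthesis on 1.4 nM ssM13Gori ran 35 min, then was stopped with PicoGreen/EDTA and read as dsDNA fluorescence.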
# Fluorescein autfl – compound autofluorescence in fluorescein spectral region. Compound autofluorescence, 480/540 nm, fluorescein-equivalent; stronger effect = higher value. max fluorescein-equivalent concentration, M. 59,000 compounds, 0.91% hits; in the data active = max fluorescein-equivalent concentration above about 10 nM; inconclusive = between about 1.1 nM and that limit
#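 Compounds were pin-transferred into 100 mM Tris buffer, pH 8.0, and incubated 15 min at room temperature. Fluorescence was read at 480 nm excitation/540 nm emission. Signals were normalized to an on-plate six-point fluorescein standard curve as dye-equivalent concentration.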
# Ub-GFP proteasome – ubiquitin-GFP accumulation via proteasome inhibition; Ubiquitin-GFP reporter cells, proteasome inhibition, GFP fluorescence; response scale: untreated = 0%, 10 µM MG-132 = 100%; Potency, µM (titrated, usually from 45.9 µM), without a hit: at the top dose activation (GFP accumulation), usual class: activators; 67,000 tested, under 10 active; AID 526; active = well fitted activation curve with a large enough effect, not every such curve was filed as active; inconclusive = small, poorly fitted or top-dose-only effect, or another doubt; inactive = no such curve, though single readings can be large or run the other way; also: potency is read from the fitted curve at half-maximal effect
#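 Proteasome blockade was scored as a rise in GFP-expressing U2OS cells carrying a ubiquitin(G76V)-GFP construct, imaged after 4 hr compound treatment at 37 °C across a 46 uM–2.9 nM series.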
# HADH2 inh – inhibitors of human HADH2 dehydrogenase. recombinant HADH2, NADH fluorescence, beta-hydroxybutyryl-CoA. Q99714. 73,000 compounds, 3.4% hits. AID 886. Potency, µM (doses to about 57.1 µM), without a hit: top-dose activity change, negative = inhibition, usual class: inhibitors; also: potency is read from the fitted curve at half-maximal effect; % is scaled to controls: 0 for no effect and ±100 for the full control effect; nearly all actives have a fitted effect of over 60% in size; many of its hits are not listed in these tables
# Target sequence (Q99714 whole entry, looked up, one chain of several): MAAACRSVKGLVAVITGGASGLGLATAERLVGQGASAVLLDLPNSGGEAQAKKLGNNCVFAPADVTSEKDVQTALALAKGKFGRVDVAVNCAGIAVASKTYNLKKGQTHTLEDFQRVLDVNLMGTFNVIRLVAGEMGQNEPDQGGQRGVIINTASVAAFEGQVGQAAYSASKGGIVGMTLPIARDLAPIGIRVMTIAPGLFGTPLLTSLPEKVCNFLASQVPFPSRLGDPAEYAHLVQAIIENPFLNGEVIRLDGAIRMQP
#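 Read-out: 360 nm excitation, 450 nm emission, kinetic over 4 min. Conditions: His-tagged human HADH2 20 nM, pH 9.0 Tris with Tween-20, 1 mM NAD+, 90 uM beta-hydroxybutyryl-CoA.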
# HBB splice mod – alters splicing of the hemoglobin beta chain | Potency, µM (doses to about 46.1 µM), for the others: at the highest dose activation, usual class: activators | 65,000 compounds, 0.06% hits | HBB splicing reporter cell assay, activation; EGFP reporter with mutant IVS2-654 intron; response scale: normalised to 500 nM splice-correcting PNA; also: potency is read from the fitted curve at half-maximal effect; 0% is about no effect
#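 Compounds were applied for 2 days to HeLa EGFP-654 cells, 500/well in Optimem with 2% FCS. The reporter's EGFP is disrupted by mis-splicing of beta-globin intron IVS2-654. Readout: summed well GFP fluorescence from 488 nm laser scanning; reference was 500 nM antisense […] 654 PNA.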
# The depositor's hits bear a star; i = inactive; ? = inconclusive; / = not tested or not shown; [ ] = another dose, or the depositor's remark. Unless noted, calls follow the shape of the dose curve; as a rule, active = well fitted curve in the direction sought with a large enough effect; inconclusive = small, poorly fitted or top-dose-only effect, or another doubt; inactive = no such curve, though single readings can be large; an effect the other way counts as inactive or inconclusive. Some of the compounds tested; count on the stated rates, not on these rows.
smiles | ALOX15 inhib | TexasRed autofl | 4MU fluor | Rhodamine fluor | GFP derepression | Pol III holo inh | Fluorescein autfl | Ub-GFP proteasome | HADH2 inh | HBB splice mod
O=C(Nc1ccccc1)c1ccc(F)c(S(=O)(=O)N2CCOCC2)c1 | 4% | i | i | i | -1% | -4% | ? | 1% | -9% | -0.5%[57.5 µM]
CCSc1nc(N)c2c3c(sc2n1)CN(C)CC3 | 4% | i | i | i | 2% | 0% | i | -1% | 6% | -1.1%
COc1ccccc1NC(=O)C1CCCCN1S(=O)(=O)c1ccc(F)cc1 (configuration not stated) | -16% | ? | i | i | 1% | -4% | ? | 14% | -6% | -5.7%
Cc1ccsc1C(=O)OCC(=O)NCC1CCCO1 (configuration not stated) | 7% | ? | i | i | -4% | -3% | i | 3% | 7% | -1.9%
N#CCCN(CC(=O)O)S(=O)(=O)c1ccccc1 | -9% | / | / | / | 5% | 6% | / | 16% | -9% | -0.1%
O=C(O)CCCC[C@@H]1SC[C@H]2NC(=O)N[C@@H]12 | 5%[25.6 µM] | / | / | / | / | / | / | / | / | /
COC(=O)c1ccc(CSc2ccc3nnc(-c4ccccn4)n3n2)o1 | 4% | / | / | / | / | -3% | / | 9% | -12% | -0.5%
O=C(c1ccc(O)cc1)c1ccc(C(=O)O)c(C(=O)O)c1 | 6% | i | i | i | 2% | -3% | i | -8% | -17% | -0.9%
CCOC(=O)C1CCN(C(=O)NC23CC4CC(CC(C4)C2)C3)CC1 | -2% | i | i | i | 2% | -5% | i | 10% | 12% | -1.2%
Cc1oc2nc(SCCCC(=O)NCCO)nc(N)c2c1C | -2% | i | i | i | -2% | -4% | i | 8% | -6% | -0.6%
Cc1nc2ccc(N)cc2c(=O)n1Cc1ccc(Cl)cc1 | 12% | i | 7.4e-07M* | i | 0% | -12% | ? | 0% | 32µM* | -8.9%
CC1CCN(c2nc3ccccc3nc2C(C#N)C(=O)NC2CCCCC2)CC1 (configuration not stated) | -6% | i | ? | i | ? | -5% | 1.4e-08M* | ? | 13% | ?
CN1CC(=O)NC1=NC(=O)c1cc(F)c(F)cc1Cl | 13% | ? | i | i | -3% | -3% | i | 2% | -3% | -0.5%
COc1cc(C(c2nnnn2C2CCCC2)N2CCc3ccccc3C2)ccc1O (configuration not stated) | -17% | ? | i | i | 1% | -5% | i | 0% | -11% | /
COC(=O)c1cn(NC(=O)CC2CCCCC2)c(=O)c2ccccc12 | -16% | i | i | i | -1% | 2% | ? | -8% | 5% | -2.2%
CCN(CC)S(=O)(=O)c1cccc(C(=O)NCCCN2CCOCC2)c1 | -5% | i | i | i | 2% | -4% | i | 0% | -1% | 0.3%[57.5 µM]
O=C(CSc1nnc(COc2ccccc2)n1-c1ccccc1)c1cccs1 | -9% | / | / | / | 0% | 0% | / | 1% | -1% | -1.7%[9.22 µM]
CC(=O)NC(Cc1ccc(C)cc1)C(=O)NC1CCN(C(=O)c2cnccn2)CC1 (configuration not stated) | -1% | i | i | i | -2% | -5% | ? | -2% | -7% | -5.9%
CN(C)Cc1ccc(C(C)(C)C)cc1-c1cc(C(C)(C)C)ccc1CN(C)C | -1%[11.4 µM] | i | i | i | 3%[9.22 µM] | 1%[11.4 µM] | i | 1%[9.17 µM] | 1%[11.4 µM] | 2.5%[9.22 µM]
FC(F)(F)c1cc(-c2ccco2)nc(-n2nc(C(F)(F)F)cc2C2CC2)n1 | -10% | i | ? | i | 0% | -9% | i | 19% | -15% | 1.6%
COC(=O)c1ccc(OC(=O)c2nn(C)cc2Cl)c(OC)c1 | 8% | / | / | / | 0% | -1% | / | -1% | 1% | -0.3%
COCCn1c(=O)[nH]c2cc(C(=O)NCC3CCCO3)ccc2c1=O (configuration not stated) | 9% | i | 3.3e-08M* | i | 2% | 3% | i | 4% | 86%[activator] | -1.0%
O=C(CSc1ncn(-c2ccccc2)n1)c1cccs1 | -22% | i | i | i | 25% | -3% | i | -6% | ? | 0.1%
CC(=O)Nc1ccc(S(=O)(=O)N2CCCC2C(=O)O)cc1 (configuration not stated) | 4% | / | / | / | 2% | -5% | / | 0% | -1% | 2.8%
O=C(CSc1ccc2nnc(-c3ccccn3)n2n1)NCc1ccco1 | -3% | / | / | / | / | -23% | / | 2% | 4% | -0.3%
O=C(O)c1ccccc1-c1ccc(/C=c2\sc3nc4cc(Br)cnc4n3c2=O)o1 | ? | / | / | / | 2% | ? | / | 3% | 3.2µM* | -1.2%[9.22 µM]
COc1ccc(Nc2nc(N)nc(CN3CCN(c4ccccn4)CC3)n2)cc1 | -1% | i | i | i | -2% | -5% | ? | -1% | -2% | -2.1%
COCCCNC(=O)C1CCCCN1S(=O)(=O)c1ccc(F)cc1 (configuration not stated) | 2% | i | i | i | -2% | -1% | ? | / | 21% | 0.9%[0.369 µM]
Brc1ccc(-c2noc(COc3ccc4c(c3)CCC4)n2)o1 | -26% | / | / | / | -3% | -6% | / | 4% | -7% | -1.0%
CCOc1ccccc1-n1c(SCC(N)=O)nnc1-c1ccco1 | -1% | i | i | i | -1% | -6% | ? | 2% | 8% | 0.6%
CCOc1ccc(C2C(C(=O)c3ccco3)=C(O)C(=O)N2CCCn2ccnc2)cc1 (configuration not stated) | 9% | i | i | i | 0% | -8% | i | -1% | -6% | -1.7%
O=C(c1ccc(Cl)cc1)c1ccc(OCC(=O)N2CCOCC2)cc1 | 0% | ? | i | i | -2% | 1% | i | -1% | -1% | 0.0%[57.5 µM]
O=C(O)C1C2C=CC(O2)C1C(=O)NCCCn1ccnc1 (configuration not stated) | 22% | i | i | i | 4% | 1% | ? | 1% | -10% | 6.6%[0.369 µM]
CCOC(=O)Cc1csc(SCC(=O)/C(C#N)=C(\C)N)n1 | 17% | i | i | i | 0% | -7% | i | 5% | -17% | 0.0%[57.5 µM]
CC(C)(C)C(=O)/C(C#N)=c1\s/c(=C\c2ccncc2)c(=O)n1CCCN1CCOCC1 | -1% | i | i | i | -2% | -3% | i | 5% | ? | 0.1%[57.5 µM]
Cc1ccccc1NC(=O)C1CC(Cl)=CCC1C(=O)O (configuration not stated) | 4% | / | / | / | 3% | -7% | / | 5% | 0% | -2.5%
CCCCc1nc2ccccc2n2cc3c(=O)n(C)c(=O)n(C)c3c12 | 5% | / | / | / | -2% | -1% | / | 13% | 9% | 1.1%
CCc1cc(-c2[nH]ncc2-c2ccc3c(c2)OCO3)c(O)cc1O | 25µM* | ? | i | i | -1% | -2% | ? | 0% | -5% | 1.5%

# By substructure: those above containing a COOH group (seven)
smiles | ALOX15 inhib | TexasRed autofl | 4MU fluor | Rhodamine fluor | GFP derepression | Pol III holo inh | Fluorescein autfl | Ub-GFP proteasome | HADH2 inh | HBB splice mod
N#CCCN(CC(=O)O)S(=O)(=O)c1ccccc1 | -9% | / | / | / | 5% | 6% | / | 16% | -9% | -0.1%
O=C(O)CCCC[C@@H]1SC[C@H]2NC(=O)N[C@@H]12 | 5%[25.6 µM] | / | / | / | / | / | / | / | / | /
O=C(c1ccc(O)cc1)c1ccc(C(=O)O)c(C(=O)O)c1 | 6% | i | i | i | 2% | -3% | i | -8% | -17% | -0.9%
CC(=O)Nc1ccc(S(=O)(=O)N2CCCC2C(=O)O)cc1 (configuration not stated) | 4% | / | / | / | 2% | -5% | / | 0% | -1% | 2.8%
O=C(O)c1ccccc1-c1ccc(/C=c2\sc3nc4cc(Br)cnc4n3c2=O)o1 | ? | / | / | / | 2% | ? | / | 3% | 3.2µM* | -1.2%[9.22 µM]
O=C(O)C1C2C=CC(O2)C1C(=O)NCCCn1ccnc1 (configuration not stated) | 22% | i | i | i | 4% | 1% | ? | 1% | -10% | 6.6%[0.369 µM]
Cc1ccccc1NC(=O)C1CC(Cl)=CCC1C(=O)O (configuration not stated) | 4% | / | / | / | 3% | -7% | / | 5% | 0% | -2.5%

# Screening results as filed in PubChem.
